bIAP act: intestinal alkaline phosphatase (bovine) activation; purified bovine IAP, CDP-star luminescence, 30 min; active compounds read high; fold of DMSO-control signal, blank-subtracted; activation factor at 20 µM; actives 0.17% (n = 200,000);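 active = activation factor of 2 or more at 20 µM, a signal rise over negative controls twice the positive control's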
bIAP inhibitor: intestinal alkaline phosphatase (bovine) inhibition | 190,000 tested, under 10 active | purified bovine IAP, CDP-star luminescence, 30 min | inhibition, % at 20 µM;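 active = over 50% inhibition of intestinal alkaline phosphatase at 20 µM in the single-dose screen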
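test system = bovine IAP enzyme | medium = DEA buffer 100 mM, pH 9.8, with MgCl2 1.0 mM, ZnCl2 0.02 mM | detection = luminescence | dosing = single compound dose of 20 µM, 2% DMSO final | incubation = 30 min reaction at room temperature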
TNAP act hi DEA: increases human TNAP activity under high phosphate acceptor concentration; P05186; purified TNAP, CDP-star luminescence, 1 M DEA, 30 min; active compounds read high; 0 = EDTA background, 1 = DMSO-only activity; activation factor at 20 µM; 200,000 tested, under 10 active;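 active = activation factor at least 2 at 20 µM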
Target sequence (P05186 whole entry, looked up): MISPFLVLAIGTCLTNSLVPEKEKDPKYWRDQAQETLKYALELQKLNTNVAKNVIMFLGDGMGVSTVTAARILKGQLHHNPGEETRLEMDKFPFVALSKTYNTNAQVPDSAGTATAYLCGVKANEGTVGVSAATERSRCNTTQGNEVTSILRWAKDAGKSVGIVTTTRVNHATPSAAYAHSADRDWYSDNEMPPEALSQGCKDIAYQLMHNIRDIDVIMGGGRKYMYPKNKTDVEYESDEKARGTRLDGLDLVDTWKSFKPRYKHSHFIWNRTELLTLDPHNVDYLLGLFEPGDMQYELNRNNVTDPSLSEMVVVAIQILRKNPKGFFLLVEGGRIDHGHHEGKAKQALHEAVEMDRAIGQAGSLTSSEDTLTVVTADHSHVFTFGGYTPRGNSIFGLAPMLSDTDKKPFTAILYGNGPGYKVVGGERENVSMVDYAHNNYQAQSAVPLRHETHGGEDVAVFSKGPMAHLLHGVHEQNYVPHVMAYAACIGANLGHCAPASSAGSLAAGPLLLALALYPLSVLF
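system = human TNAP | amount = enzyme diluted 1/800 final | reagent = 100 µM CDP-star substrate | signal = luminescent substrate turnover signal | dosing = one dose, 20 µM | benchmarks = EDTA negative control, DMSO positive control | measure = activation factor | timing = 30 min reaction, room temperature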
TNAP inh hi DEA: TNAP (human) inhibition, high acceptor. inhibition, % at 20 µM. purified TNAP, CDP-star luminescence, 1 M DEA. P05186. AID 1135. actives 0.03% (n = 200,000);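 active = over 50% inhibition of tissue-nonspecific alkaline phosphatase at 20 µM in the single-dose screen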;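 note: plate controls were DMSO wells for no effect and EDTA-quenched wells as full inhibition for full effect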
TNAP inh no acc: TNAP (human) inhibition, acceptor-free conditions; P05186; purified TNAP, CDP-star luminescence, 30 min; inhibition, % at 20 µM; actives 0.26% (n = 200,000); AID 1012;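 active = tissue-nonspecific alkaline phosphatase inhibition above about 50% at 20 µM in the single-dose screen, limit read from the data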;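 note: 0% = DMSO negative control and 100% = EDTA positive control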
* hit, by the source's call; & = joins results of further samples.

Abbreviations: A = bIAP act; B = bIAP inhibitor; C = TNAP act hi DEA; D = TNAP inh hi DEA; E = TNAP inh no acc
C=CCn1c(O)c(C=NCCN(C)C)c(=O)[nH]c1=O
  A: 1; B: 0; C: 1.1; D: -6; E: -4
COc1ccc(-n2c(O)c(C(C)=NCCCn3ccnc3)c(=O)[nH]c2=O)cc1
  A: 1; B: 0; C: 1; D: -3; E: 10
CN[C@H]1C[C@H]2O[C@@](C)([C@H]1OC)n1c3ccccc3c3c4c(c5c6ccccc6n2c5c31)C(=O)NC4
  A: 0.9; B: 10; C: 1; D: -4; E: -12
Cc1ccc(C2CC(=O)C(C=NCCN3CCN(C(=O)Cc4ccccc4)CC3)=C(O)C2)cc1 (stereo not drawn)
  A: 1; B: -2; C: 1; D: -1; E: -7
O[C@@H]1CCCC[C@H]1N1CCC(c2ccccc2)CC1
  A: 0.9&0.9; B: 12&12; C: 1.1&1.1; D: -5&-8; E: 6&-12
CC(NCc1ccc(Cl)cc1Cl)C(O)c1ccccc1 (stereo not drawn)
  A: 0.9; B: 7; C: 1.1; D: -9; E: -5
O=C1CC[C@@]2(O)[C@H]3Cc4ccc(O)c5c4[C@@]2(CCN3CC2CC2)[C@H]1O5
  A: 1.2; B: -17; C: 1; D: -4; E: -14
CC(=O)OC1C2CCCC1C(N1CCCC1)CC2 (stereo not drawn)
  A: 0.9&0.9; B: 6&8; C: 1&1; D: -5&-2; E: -7&-9
Cc1ccc(NP(=O)(Oc2ccccc2F)Oc2ccccc2F)cc1
  A: 0.7; B: 25; C: 1; D: -1; E: -4
CCCCOc1ccc(CC2C(=O)N(C)C(=O)N(C)C2=O)cc1
  A: 1; B: -4; C: 1; D: -2; E: -13

In a second layout: 2 of the compounds above.
CCCCOc1ccc(CC2C(=O)N(C)C(=O)N(C)C2=O)cc1
  bIAP act: 1
  bIAP inhibitor: -4
  TNAP act hi DEA: 1
  TNAP inh hi DEA: -2
  TNAP inh no acc: -13
O[C@@H]1CCCC[C@H]1N1CCC(c2ccccc2)CC1
  bIAP act: 0.9&0.9
  bIAP inhibitor: 12&12
  TNAP act hi DEA: 1.1&1.1
  TNAP inh hi DEA: -5&-8
  TNAP inh no acc: 6&-12

Entries of single compounds, quoted from the list:
CC(NCc1ccc(Cl)cc1Cl)C(O)c1ccccc1 (stereo not drawn) across the screens: bIAP act = 0.9; bIAP inhibitor = 7; TNAP act hi DEA = 1.1; TNAP inh hi DEA = -9; TNAP inh no acc = -5
O=C1CC[C@@]2(O)[C@H]3Cc4ccc(O)c5c4[C@@]2(CCN3CC2CC2)[C@H]1O5 across the screens: bIAP act = 1.2; bIAP inhibitor = -17; TNAP act hi DEA = 1; TNAP inh hi DEA = -4; TNAP inh no acc = -14

Bioassay records as filed in PubChem.

Only part of the results is shown; count on the stated rates, not on these rows.
